Luciferase inh – qHTS Assay for Inhibitors of Firefly Luciferase; Luciferin 4-monooxygenase (Photinus pyralis), P08659; purified firefly luciferase, luminescence, 8 min; Potency, µM (doses to about 57.1 µM), inactives show at the top dose activity change, negative = inhibition, usual class: inhibitors; actives 2.2% (n = 72,000); AID 411, 2009; note: potency is the fitted concentration of half-maximal effect; % is set by controls: 0 for no effect and ±100 for the full control effect; nearly all actives have a fitted effect of over 40% in size
Target sequence (P08659 whole entry, looked up): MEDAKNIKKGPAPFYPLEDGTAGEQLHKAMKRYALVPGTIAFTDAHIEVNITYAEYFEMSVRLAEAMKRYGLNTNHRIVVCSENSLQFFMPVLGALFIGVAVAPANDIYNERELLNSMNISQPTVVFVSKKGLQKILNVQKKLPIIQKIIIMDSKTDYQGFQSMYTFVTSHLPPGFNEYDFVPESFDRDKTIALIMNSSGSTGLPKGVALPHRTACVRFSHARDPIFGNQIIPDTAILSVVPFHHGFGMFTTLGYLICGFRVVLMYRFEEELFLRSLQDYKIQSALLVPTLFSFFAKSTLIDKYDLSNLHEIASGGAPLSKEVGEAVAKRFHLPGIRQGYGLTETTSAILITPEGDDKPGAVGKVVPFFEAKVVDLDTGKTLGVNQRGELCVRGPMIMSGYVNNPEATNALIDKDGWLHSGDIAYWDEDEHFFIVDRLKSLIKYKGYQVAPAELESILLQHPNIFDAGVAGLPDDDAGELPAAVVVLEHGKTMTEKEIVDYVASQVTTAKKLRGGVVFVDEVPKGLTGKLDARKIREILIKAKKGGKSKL
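Substrate buffer containing 10 uM ATP (pH 7.2 imidazole, Mg2+, KCl, detergent, BSA) is dispensed, compound pinned in, then luciferase/luciferin detector mix added. After 8 min at ambient temperature, light output is measured.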
HADH2 inh – qHTS Assay for Inhibitors of HADH2 (Hydroxyacyl-Coenzyme A Dehydrogenase, Type II). Potency, µM (top dose mostly 57.1 µM), inactives show at the top dose activity change, negative = inhibition, hits mostly inhibitors. actives 3.4% (n = 73,000). recombinant HADH2, NADH fluorescence, beta-hydroxybutyryl-CoA. 3-hydroxyacyl-CoA dehydrogenase type-2 (Homo sapiens), Q99714; note: potency is the fitted concentration of half-maximal effect; % is set by controls: 0 for no effect and ±100 for the full control effect; nearly all actives have a fitted effect of over 60% in size; many of its hits are not listed in these tables
Target sequence (Q99714 whole entry, looked up, one chain of several): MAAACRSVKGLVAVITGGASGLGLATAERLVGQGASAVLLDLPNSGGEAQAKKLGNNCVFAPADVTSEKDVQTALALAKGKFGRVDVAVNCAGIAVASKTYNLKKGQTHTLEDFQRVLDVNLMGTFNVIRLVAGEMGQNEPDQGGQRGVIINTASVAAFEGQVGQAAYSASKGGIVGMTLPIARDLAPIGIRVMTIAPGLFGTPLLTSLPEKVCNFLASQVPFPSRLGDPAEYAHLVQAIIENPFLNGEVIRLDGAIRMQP
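Buffer 100 mM Tris-HCl pH 9.0/0.01% Tween-20; HADH2 20 nM; NAD+ 1 mM; beta-hydroxybutyryl-CoA 90 uM (all final). 15 min cpd preincubation, RT.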
USP2a inh – qHTS Assay for Inhibitors of Ubiquitin-specific Protease USP2a; USP2a enzymatic assay, qHTS inhibition; Potency, µM (top dose mostly 38.3 µM), without a hit: top-dose activity change, negative = inhibition, actives largely listed as inhibitors; actives 0.1% (n = 60,000);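 note: potency is the fitted concentration of half-maximal effect; nearly all actives have a fitted effect of over 60% in size; plate controls were DMSO for no effect and NEM full inhibition control for full effect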
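USP2 core (20nM final) preincubated 30 min RT with compound, then Ub-PLA2 20nM and NBD C6-HPC 20uM final added; buffer 20mM Tris-HCl pH 8.0, 2mM CaCl2. Fluorescence Ex 460/Em 535 read at 0 and 2.5 h; normalized to NEM.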
Fluorescein autfl – qHTS Assay for Spectroscopic Profiling in Fluorescein Spectral Region | Compound autofluorescence, 480/540 nm, fluorescein-equivalent; stronger effect = higher value | max fluorescein-equivalent concentration, M | actives 0.91% (n = 59,000) | AID 593, 2007; in the data active = max fluorescein-equivalent concentration above about 10 nM; inconclusive = between about 1.1 nM and that limit
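First, buffer (100 mM Tris, pH 8.0) dispensed; second, compounds and fluorescein standards pinned in; third, 15 min room-temperature incubation; finally, imaging at ex 480 nm/em 540 nm. Fluorescence normalized against the six-point fluorescein curve.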
TexasRed autofl – qHTS Assay for Spectroscopic Profiling in Texas Red Spectral Region. actives 0.06% (n = 59,000). Compound fluorescence, Texas Red channel, 547/618 nm; stronger effect = higher value. AID 587, 2007. max dye-equivalent concentration, M; in the data active = max dye-equivalent concentration above about 10 nM; inconclusive = between about 1.1 nM and that limit
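Compound titrations in 100 mM Tris pH 8.0 were incubated 15 min at room temperature and read at 547 nm excitation / 618 nm emission. Texas Red six-point standard curve on each plate converted fluorescence to dye-equivalent concentration.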
ERK AVP inh – qHTS Assay for Inhibitors of the ERK Signaling Pathway using a Homogeneous Screening Assay | Potency, µM (highest dose often 57.5 µM), for inactives: top-dose activity, negative = inhibition, actives largely listed as inhibitors | actives 0.99% (n = 72,000) | HEK293-V1b, vasopressin-stimulated pERK AlphaScreen; note: potency is the fitted concentration of half-maximal effect; % is set by controls: 0 for no effect and ±100 for the full control effect; nearly all actives have a fitted effect of over 55% in size
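Overnight-seeded V1b-HEK293 cells in 1% FBS got compound, then vasopressin (25 nM final, 5 min, 37C), then lysis buffer. AlphaScreen detection of phospho-ERK; activity normalized to basal and full-stimulation controls.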
Tau filament bind – qHTS Assay for Tau Filament Binding | Microtubule-associated protein tau (Homo sapiens), P10636 | recombinant tau filaments, thioflavin S fluorescence, 15 h; filaments grown with octadecylsulfate alongside compound | Potency, µM (titrated, usually from 57.1 µM), for inactives: top-dose activity change, negative = inhibition | actives 2% (n = 71,000);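 note: potency is the fitted concentration of half-maximal effect; % is set by controls: 0 for no effect and ±100 for the full control effect; actives lower thioflavin S fluorescence by blocking filaments or displacing dye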
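His-tagged recombinant human tau (exons 2, 3 and 10 included), 1 uM, was induced to fibrillize by 30 uM sodium octadecylsulfate with compound present. After 15 h at 37 C, thioflavine S fluorescence (ex 450, em 510 nm) was read.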
Rhodamine fluor – qHTS Assay for Spectroscopic Profiling in Rhodamine Spectral Region | Rhodamine-region fluorescence, 547/598 nm, Tris buffer; stronger effect = higher value | max dye-equivalent concentration, M | actives 0.05% (n = 59,000) | AID 594, 2007; in the data active = max dye-equivalent concentration above about 11 nM; inconclusive = between about 1.1 nM and that limit
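Compound fluorescence in 100 mM Tris, pH 8.0, read after 15 min at room temperature with 547 nm excitation and 598 nm emission. Output is dye-equivalent concentration from an on-plate rhodamine standard series.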
The depositor's hits bear a star; i = inactive; ? = inconclusive; . = not tested or not shown; & = joins results of further samples; ! = repeats disagree; [ ] = remark or other dose. Unless noted, calls come from the whole dose curve; as a rule, active = well fitted curve in the direction sought with a large enough effect; inconclusive = small, poorly fitted or top-dose-only effect, or another doubt; inactive = no such curve, though single readings can be large; an effect the other way counts as inactive or inconclusive. This is a subset. The share of hits here may be higher or lower than overall.

Short keys – A = Luciferase inh; B = HADH2 inh; C = USP2a inh; D = Fluorescein autfl; E = TexasRed autofl; F = ERK AVP inh; G = Tau filament bind; H = Rhodamine fluor
1	N=C(N)c1ccc(-c2ccc(-c3ccc(C(=N)N)cc3)o2)cc1
  A = 3%[11.4 µM] | B = ? | C = . | D = i | E = i | F = -4%[11.5 µM] | G = 129%[11.4 µM] | H = i
2	Cc1cc(Cl)ccc1OC(C)C(=O)O (stereo not drawn)
  A = -1% | B = 6% | C = -2% | D = ? | E = i | F = 0% | G = -8% | H = i
3	CN[C@@H](C)[C@@H](O)c1ccccc1
  A = ? | B = 1.6µM* | C = -2% | D = i | E = ? | F = -22% | G = -3% | H = i
4	Cc1ccc(O)cc1 (tested in a mixture with another compound)
  A = 1%[11.4 µM] | B = -3%[11.4 µM] | C = . | D = ? | E = i | F = 31%[11.5 µM] | G = 12%[11.4 µM] | H = i
5	Cc1ccc(N=C=O)cc1N=C=O
  A = . | B = 6% | C = . | D = . | E = . | F = -2% | G = 57% | H = .
6	CC(C)C[C@H]1C(=O)N2CCC[C@@H]2[C@@]2(O)O[C@](NC(=O)[C@@H]3C=C4c5cccc6[nH]cc(c56)C[C@@H]4N(C)C3)(C(C)C)C(=O)N12
  A = -24%[25.5 µM] | B = -19%[25.6 µM] | C = 57%[activator][17.1 µM] | D = 4.9e-08M* | E = i | F = -9%[25.7 µM] | G = 289%[25.6 µM] | H = i
7	Cc1ccc(S(=O)(=O)N(C)CCCC(=O)N2CCN(c3ccccn3)CC2)cc1
  A = 3% | B = 4% | C = 3% | D = i | E = i | F = 25µM* | G = 12% | H = i
8	COCCCn1c(N)c(C(=O)OC(C)COC)c2nc3ccccc3nc21 (stereo not drawn)
  A = 1% | B = ? | C = 1% | D = i | E = i | F = ? | G = -7% | H = i
9	C=CC(=O)OCCN(C)C
  A = . | B = -5% | C = . | D = . | E = . | F = 19% | G = 1% | H = .
10	N#CCCC#N
  A = . | B = 3% | C = . | D = . | E = . | F = -15% | G = 7% | H = .
11	Clc1nc(Cl)nc(Cl)n1
  A = . | B = 7% | C = . | D = . | E = . | F = 6% | G = 9% | H = .
12	O=C(O)COc1ccc(Cl)cc1Cl
  A = . | B = -3%&-2% | C = -5% | D = . | E = . | F = 14%&15% | G = 7%&-7% | H = .
13	CCCCCCn1c(N)c(C(=O)NCCN2CCOCC2)c2nc3ccccc3nc21
  A = 1% | B = ? | C = 24% | D = ? | E = ? | F = -16% | G = 74% | H = i
14	CCCCCC[N+](=O)[O-]
  A = . | B = 3% | C = . | D = . | E = . | F = -8% | G = -6% | H = .
15	COC(=O)C1=CCCN(C)C1
  A = 0%[25.5 µM] | B = 13%[25.6 µM] | C = -5% | D = ? | E = i | F = 3% | G = -11%[25.6 µM] | H = i
16	COc1ccc2c3c([nH]c2c1)C(C)=NCC3
  A = 2%[11.4 µM] | B = 40µM*! | C = 17% | D = ? | E = i | F = 13% | G = 60% | H = i
17	CCC(C)NC(=O)c1c(N)n(Cc2ccc3c(c2)OCO3)c2nc3ccccc3nc12 (stereo not drawn)
  A = 5% | B = 21% | C = 34%[activator] | D = i | E = ? | F = 29% | G = 96% | H = i
18	Cc1cc2c(C(C)C)c(O)c(O)c(C=O)c2c(O)c1-c1c(C)cc2c(C(C)C)c(O)c(O)c(C=O)c2c1O
  A = -6% | B = 5µM* | C = 24%[17.1 µM] | D = ? | E = i | F = 25µM*! | G = 1µM* | H = i
19	CO[C@@H]1CC=C2CCN3CCC4=C(CC(=O)OC4)[C@]23C1
  A = 0% | B = -10% | C = -5% | D = ? | E = i | F = 0% | G = -5% | H = i
20	CC(C)[C@@]1(NC(=O)[C@@H]2C=C3c4cccc5[nH]cc(c45)C[C@H]3N(C)C2)O[C@@]2(O)[C@@H]3CCCN3C(=O)[C@H](Cc3ccccc3)N2C1=O
  A = -10%[25.5 µM] | B = . | C = . | D = 3.8e-08M* | E = i | F = . | G = . | H = i
21	COP(=S)(OC)Oc1ccc([N+](=O)[O-])cc1
  A = . | B = ? | C = 2% | D = . | E = . | F = 38%[activator] | G = -11% | H = .
22	C=C(C)CCl
  A = . | B = 0% | C = . | D = . | E = . | F = 9% | G = -5% | H = .
23	CCOC(=O)c1c(N)n(Cc2ccc(OC)cc2)c2nc3ccccc3nc12
  A = -1% | B = i | C = 31%[activator] | D = i | E = i | F = ? | G = -8% | H = i
24	COc1ccc(Cn2c(N)c(C(=O)NCc3ccco3)c3nc4ccccc4nc32)cc1OC
  A = -2% | B = 25µM* | C = 33%[activator] | D = ? | E = i | F = -18% | G = -27% | H = i
25	O=[N+]([O-])/C=C/c1ccccc1
  A = . | B = 2% | C = . | D = . | E = . | F = 13% | G = -2% | H = .

Already shown: 11 of the compounds above.
Short keys – A = Luciferase inh; B = HADH2 inh; C = USP2a inh; D = Fluorescein autfl; E = TexasRed autofl; F = ERK AVP inh; G = Tau filament bind; H = Rhodamine fluor
1	N=C(N)c1ccc(-c2ccc(-c3ccc(C(=N)N)cc3)o2)cc1
  A = 3%[11.4 µM] | B = ? | C = . | D = i | E = i | F = -4%[11.5 µM] | G = 129%[11.4 µM] | H = i
2	Cc1cc(Cl)ccc1OC(C)C(=O)O (stereo not drawn)
  A = -1% | B = 6% | C = -2% | D = ? | E = i | F = 0% | G = -8% | H = i
3	CN[C@@H](C)[C@@H](O)c1ccccc1
  A = ? | B = 1.6µM* | C = -2% | D = i | E = ? | F = -22% | G = -3% | H = i
4	Cc1ccc(O)cc1 (tested in a mixture with another compound)
  A = 1%[11.4 µM] | B = -3%[11.4 µM] | C = . | D = ? | E = i | F = 31%[11.5 µM] | G = 12%[11.4 µM] | H = i
5	Cc1ccc(N=C=O)cc1N=C=O
  A = . | B = 6% | C = . | D = . | E = . | F = -2% | G = 57% | H = .
6	CC(C)C[C@H]1C(=O)N2CCC[C@@H]2[C@@]2(O)O[C@](NC(=O)[C@@H]3C=C4c5cccc6[nH]cc(c56)C[C@@H]4N(C)C3)(C(C)C)C(=O)N12
  A = -24%[25.5 µM] | B = -19%[25.6 µM] | C = 57%[activator][17.1 µM] | D = 4.9e-08M* | E = i | F = -9%[25.7 µM] | G = 289%[25.6 µM] | H = i
7	Cc1ccc(S(=O)(=O)N(C)CCCC(=O)N2CCN(c3ccccn3)CC2)cc1
  A = 3% | B = 4% | C = 3% | D = i | E = i | F = 25µM* | G = 12% | H = i
8	COCCCn1c(N)c(C(=O)OC(C)COC)c2nc3ccccc3nc21 (stereo not drawn)
  A = 1% | B = ? | C = 1% | D = i | E = i | F = ? | G = -7% | H = i
9	C=CC(=O)OCCN(C)C
  A = . | B = -5% | C = . | D = . | E = . | F = 19% | G = 1% | H = .
10	N#CCCC#N
  A = . | B = 3% | C = . | D = . | E = . | F = -15% | G = 7% | H = .
11	Clc1nc(Cl)nc(Cl)n1
  A = . | B = 7% | C = . | D = . | E = . | F = 6% | G = 9% | H = .

Further results follow:
Short keys – A = Luciferase inh; B = HADH2 inh; C = USP2a inh; D = Fluorescein autfl; E = TexasRed autofl; F = ERK AVP inh; G = Tau filament bind; H = Rhodamine fluor
26	O=C(O)c1cc(Cl)ccc1Cl
  A = . | B = -9% | C = . | D = . | E = . | F = 18% | G = 6% | H = .
27	O=[N+]([O-])c1ccccc1O
  A = . | B = 1% | C = . | D = . | E = . | F = 9% | G = -5% | H = .
28	Cc1nc2cnc(N3CCNCC3)nc2n(C)c1=O
  A = 1%[11.4 µM] | B = -13% | C = -19% | D = i | E = i | F = -9% | G = -9% | H = i
29	O=C(O)CCCOc1ccc(Cl)cc1Cl
  A = . | B = . | C = -4% | D = . | E = . | F = -4% | G = . | H = .
30	CC(C)CCOC(=O)c1c(N)n(CC2CCCO2)c2nc3ccccc3nc12 (stereo not drawn)
  A = -2% | B = 174%[activator] | C = 20% | D = i | E = i | F = 16% | G = 3% | H = i
31	ClC(Cl)c1ccccc1
  A = . | B = -2% | C = . | D = . | E = . | F = 6% | G = -2% | H = .
32	CN1CCN(c2ncc3ncc(=O)n(C)c3n2)CC1
  A = 1%[11.4 µM] | B = -23% | C = 36%[activator] | D = i | E = i | F = -17% | G = 81% | H = i
33	CCC/C=N/O
  A = . | B = -3% | C = . | D = . | E = . | F = 17% | G = 10% | H = .
34	CCCCC#N
  A = . | B = -2% | C = . | D = . | E = . | F = 19% | G = 2% | H = .
35	COc1ccc(Cn2c(N)c(C(=O)NCc3ccco3)c3nc4ccccc4nc32)cc1
  A = 2% | B = 82%[activator] | C = 29% | D = ? | E = ? | F = 22% | G = 6.3µM* | H = i
36	CCCNC(=O)c1c(N)n(CC2CCCO2)c2nc3ccccc3nc12 (stereo not drawn)
  A = 1% | B = 32µM* | C = 29% | D = i | E = ? | F = 55%[activator] | G = 18% | H = i
37	CC(N)C(O)c1ccc(O)c(O)c1 (stereo not drawn)
  A = . | B = . | C = -13%&-15% | D = . | E = . | F = 6%&-18% | G = . | H = .
38	Cc1ccc([N+](=O)[O-])cc1N
  A = . | B = -1% | C = . | D = . | E = . | F = 2% | G = -10% | H = .
39	O=[N+]([O-])CCO
  A = . | B = -1% | C = . | D = . | E = . | F = -17% | G = -1% | H = .
40	O=C(O)c1cc(O)c(O)c(O)c1
  A = . | B = 0.05µM* | C = -13% | D = . | E = . | F = ? | G = -2% | H = .
41	CC(C)[C@]1(NC(=O)[C@@H]2C=C3c4cccc5[nH]cc(c45)C[C@H]3N(C)C2)O[C@@]2(O)C3CCCN3C(=O)[C@H](Cc3ccccc3)N2C1=O (stereo partly drawn)
  A = . | B = . | C = . | D = . | E = . | F = -24% | G = . | H = .

High-throughput results (PubChem BioAssay)
